Screening data (PubChem)
NS1 function inh = influenza NS1 inhibition; S. cerevisiae slowed by influenza A NS1, growth recovery by OD600; Potency, µM (highest dose often 46.1 µM), for the others: top-dose activity, positive = more growth; 270,000 compounds, 0.4% hits; note: actives are rising curves; nearly all actives have a fitted effect of over 50% in size
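In this qHTS, NS1 from influenza A is expressed in budding yeast, where it slows growth. Cells are switched from glucose to 2% galactose medium (pH 6.0, -URA), treated with compound, and growth recovery is read at OD600.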
Cruzain noTriton = cruzain (T. cruzi) inhibition without detergent; P25779; 200,000 compounds, 2.3% hits; purified cruzain, Z-FR-AMC fluorescence, no detergent; Potency, µM, without a hit: max response, negative = inhibition, actives largely listed as inhibitors; active = well fitted curve in the direction sought with a large enough effect; inconclusive = small, poorly fitted or top-dose-only effect, or another doubt; inactive = no such curve, though single readings can be large; an effect the other way counts as inactive or inconclusive;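 note: plate controls were enzyme without inhibitor for no effect and buffer without enzyme for full effect; nearly all actives have a fitted effect of over 40% in size; top concentration of the series not given in the record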
Target sequence (P25779 123-467 limits assumed): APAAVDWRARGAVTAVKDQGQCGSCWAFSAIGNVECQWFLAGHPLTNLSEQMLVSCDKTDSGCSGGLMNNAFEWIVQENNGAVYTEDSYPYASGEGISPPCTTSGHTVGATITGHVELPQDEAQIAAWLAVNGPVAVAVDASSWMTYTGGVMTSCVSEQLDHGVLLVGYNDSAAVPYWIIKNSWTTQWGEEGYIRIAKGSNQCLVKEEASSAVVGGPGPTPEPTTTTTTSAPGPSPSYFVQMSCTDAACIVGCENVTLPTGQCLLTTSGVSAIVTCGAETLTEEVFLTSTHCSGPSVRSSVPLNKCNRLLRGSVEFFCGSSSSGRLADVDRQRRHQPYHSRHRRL
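Detergent-free condition (0.00005% Triton X-100) in acetate buffer pH 5.5 with DTT. 1.5 nM enzyme and compound were pre-mixed 15 min, then 2 uM Z-FR-AMC substrate added; reaction progress from fluorescence change between first and third reads (60 s).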
2A StopGo = lowers the luciferase signal of an FMDV 2A StopGo reporter; human cells with a luciferase reporter of 2A StopGo recoding; control for the full effect not named in the record; Potency, µM (titrated, usually from 57.9 µM), for inactives: at the top dose signal change, negative = less light; 410,000 compounds, 1.2% hits; AID 1159524; active = well fitted falling curve with a large enough effect; inconclusive = small, poorly fitted or top-dose-only effect; inactive = no such curve, though single readings can be large or run the other way; tested in HEK293T cells; note: % is set by controls: 0 for no effect and ±100 for the full control effect; nearly all actives have a fitted effect of over 45% in size; luciferase light after 4 h
Cruzain inh Det = cruzain (T. cruzi) inhibition with detergent; 200,000 compounds, 0.43% hits; Potency, µM, inactives show max response, negative = inhibition, hits mostly inhibitors; purified cruzain, Z-FR-AMC fluorescence, 0.01% Triton; active = well fitted curve in the direction sought with a large enough effect; inconclusive = small, poorly fitted or top-dose-only effect, or another doubt; inactive = no such curve, though single readings can be large; an effect the other way counts as inactive or inconclusive;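 note: plate controls were neutral wells for no effect and buffer without enzyme for full effect; nearly all actives have a fitted effect of over 40% in size; top concentration of the series not given in the record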
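Cruzain (1.5 nM) preincubated 15 min at RT with compound in 100 mM sodium acetate pH 5.5, 5 mM DTT, 0.01% Triton X-100. Reaction started with 2 uM Z-FR-AMC; AMC fluorescence (ex 360/em 450 nm) change over 60 s gave rate.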
MARV entry inh = Marburg virus entry inhibition | Marburg virus pseudotyped entry inhibition, cell reporter; control for the full effect not named in the record; about a third of the inactives were read at about 46 µM | Potency, µM (doses to about 37.8 µM), for the others: at the highest dose activity change, negative = inhibition, hits mostly inhibitors | 300,000 compounds, 1.8% hits; active = well fitted inhibition curve with a large enough effect; inconclusive = small, poorly fitted or top-dose-only effect, or effect the other way; inactive = flat fitted curve, though single readings scatter; tested in HEK293 cells; about a fifth of its hits are not listed in these tables; note: % is set by controls: 0 for no effect and ±100 for the full control effect; luciferase read-out
RE007 growth inh = less growth of the S. pombe RE007 Vpr strain | S. pombe RE007 Vpr strain, BacTiter-Glo ATP luminescence, 24 h; control for the full effect not named in the record | Potency, µM (titrated, usually from 92.2 µM), without a hit: at the top dose activity change, negative = less growth | 360,000 compounds, 0.21% hits; active = well fitted falling curve with a large enough effect; inconclusive = small, poorly fitted or top-dose-only effect; inactive = no such curve, though single readings can be large or run the other way;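 note: % is set by controls: 0 for no effect and ±100 for the full control effect; nearly all actives have a fitted effect of over 50% in size; the assay follows cell death caused by Vpr and the record does not say whether a fall means rescue or toxicity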
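Fission yeast strain RE007, carrying one chromosomally integrated HIV-1 vpr copy, was seeded at OD 0.01 in PMG+AL medium with 23 nL pinned compound. After 24 h at 30 °C and 99% humidity, viability was read by BacTiter-Glo luminescence.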
SARS PLpro yeast = blocks SARS-CoV papain-like protease in a yeast assay. S. cerevisiae expressing SARS-CoV PLpro, growth rescue; control for the full effect not named in the record. Potency, µM (series often up to 32.9 µM), for inactives: top-dose activity, positive = growth rescue. 330,000 compounds, 0.19% hits; note: 0% is about no effect; nearly all actives have a fitted effect of over 55% in size; growth read by luminescence after 48 h
LASV entry inh = Lassa virus entry inhibition. Lassa virus pseudotype entry inhibition, cell reporter; control for the full effect not named in the record. Potency, µM (highest dose often 37.9 µM), without a hit: at the highest dose activity change, negative = inhibition, most hits filed as inhibitors. AID 540256. 300,000 compounds, 1.2% hits; active means well fitted inhibition curve with a large enough effect; inconclusive means small, poorly fitted or top-dose-only effect, or effect the other way; inactive means flat fitted curve, though single readings scatter; tested in HEK293 cells; note: % is set by controls: 0 for no effect and ±100 for the full control effect; nearly all actives have a fitted effect of over 50% in size; luciferase read-out
The depositor's hits bear a star; ? = inconclusive; . = no result given; & = joins results of further samples; [ ] = dose if it differs, or a comment. Unless noted, calls come from the whole dose curve; as a rule, active means well fitted rising curve with a large enough effect; inconclusive means small, poorly fitted or top-dose-only effect; inactive means no such curve, though single readings can be large or run the other way. Potency is the fitted concentration of half-maximal effect.

Every second line gives: NS1 function inh	Cruzain noTriton	2A StopGo	Cruzain inh Det	MARV entry inh	RE007 growth inh	SARS PLpro yeast	LASV entry inh
CCc1cc(CNC(=O)c2cc(COc3ccc(C)nc3)on2)on1
 : -9%	.	26%	.	-1%	3%	-6%	2%
CCCCn1c(N)c(N(CC(C)C)C(=O)CN(C)Cc2cccc(OC)c2)c(=O)[nH]c1=O
 : -3%	10%	-12%	4.2%	9%[46.1 µM]	-20%	-2%	-1%
O=C(COC(=O)c1ccc(Cl)nc1)NCc1ccco1
 : 4%	.	-3%	.	-1%[46.1 µM]	8%	0%	-24%
O=c1c(=O)n(O)c2ccccc2n1O
 : 16%	-15%	.	-1.2%	13%	-5%	-5%	-13%
CCOC(=O)/C(C#N)=C/C1=C(N2CCCC2)CC(C)(CC)OC1 (stereo not drawn)
 : -3%	2%	-12%	0.3%	-1%	8%	12%[6.58 µM]	-14%
Oc1ccc(N2CCN(c3ccnc4cc(Cl)ccc34)CC2)cc1
 : 7%	.	-12%	.	?	-3%	-13%	-17%[46.1 µM]
Cc1ccccc1NCc1cccn1-c1nnc(N2CCC(C)CC2)s1
 : .	6%	20%	-3.3%	.	.	.	0%[46.1 µM]
O=C(O)c1ccc(NC(=O)c2cn(-c3ccccc3)nc2-c2ccc(Br)cc2)cc1
 : -8%	?	-1%&5%	?	-1%&-1%[46.1 µM]	4%	-1%	-16%&-20%[46.1 µM]
CCc1ccc(-n2c(=O)c3ccccc3n(CC(=O)C(C)(C)C)c2=O)cc1
 : -5%	.	-21%	.	.	-14%	0%	.
O=C1CCc2cc(S(=O)(=O)NCCCC(=O)N3CCN(Cc4ccc5c(c4)OCO5)CC3)ccc2N1
 : .	.	-17%	.	-4%	3%	5%	-16%
COc1ccc(C(=O)CCC(=O)Nc2cc(Cl)c(O)c(Cl)c2)cc1
 : 7%	.	-13%	.	-18%[46.1 µM]	-3%	0%	17%[46.1 µM]
N[C@@H](COP(=O)(O)O)C(=O)O
 : 3%	1%&2%	24%&1%	4.6%&-1.8%	?	.	.	8%
O=c1[nH]nc(Cc2ccccn2)c2ccccc12
 : -2%	1%	-5%	-7.9%	-5%	1%	1%	-2%
COc1ccc(CC2SC(=Nc3ccc(F)cc3)NC2=O)cc1 (stereo not drawn)
 : .	.	12%	.	-13%[46.1 µM]	-7%	0%	4.5µM*
CN1CCN(C(=O)c2ccc3c(c2)N(Cc2ccc(F)cc2)C(=O)c2ccccc2S3(=O)=O)CC1
 : .	-2%	-8%	-0.6%	9%[46.1 µM]	.	.	?
O=C(/C=C/NCc1ccc(F)cc1)c1ccccc1
 : -6%	2%	10%	-3.1%	?	?	17%	-19%
COc1ccc(/C=C/C(=O)OCC(=O)Nc2ccc(Cl)c(S(=O)(=O)N(C)C)c2)cc1OC
 : 25%	?	?	-8.4%	-11%	3%	13%	-10%
Cc1cccc(NC(=O)CSCC(=O)Nc2nnc(C3CC3)s2)c1
 : 9%	.	23%	.	11%[46.1 µM]	0%	5%	29%[46.1 µM]
O=C(Nc1cccc(O)c1)c1cccc(S(=O)(=O)Nc2cccc(O)c2)c1
 : 12%	.	-4%	.	12%[46.1 µM]	-12%	8%	-29%[46.1 µM]
CN1CCN(C2CCCCCC2)CC1
 : 2%	-12%	-14%	1.8%	5%	2%	-7%	17%

Pulled one by one from the list above, 2 records:
Every second line gives: NS1 function inh	Cruzain noTriton	2A StopGo	Cruzain inh Det	MARV entry inh	RE007 growth inh	SARS PLpro yeast	LASV entry inh
COc1ccc(CC2SC(=Nc3ccc(F)cc3)NC2=O)cc1 (stereo not drawn)
 : .	.	12%	.	-13%[46.1 µM]	-7%	0%	4.5µM*
CN1CCN(C2CCCCCC2)CC1
 : 2%	-12%	-14%	1.8%	5%	2%	-7%	17%

(next part)
Every second line gives: NS1 function inh	Cruzain noTriton	2A StopGo	Cruzain inh Det	MARV entry inh	RE007 growth inh	SARS PLpro yeast	LASV entry inh
Cn1cccc1/C=C1\SC(=Nc2cccc(O)c2)NC1=O
 : 1%	.	0%	.	.	-8%	1%	.
CCOc1ccccc1NC(=O)c1c(NCc2ccc(OC)c(OC)c2OC)sc2c1CCC(C)C2 (stereo not drawn)
 : .	26%	-12%	-11%	.	.	.	?
CC(C)C(=O)N1CCN(c2ccccc2NC(=O)c2ccc3c(c2)OCCO3)CC1
 : .	.	4%	.	17%[46.1 µM]	12%	.	-4%
CCn1c2ccccc2c2cc(NC(=O)CSc3nnc(-c4ccc(OC)cc4)n3N)ccc21
 : -3%	?	-15%	-1.2%	?	-6%	2%	-26%
C#CCn1c(=O)c2c(ncn2C)n(C)c1=O
 : -10%	-4%	-18%&-1%	-1.9%	?	6%[18.4 µM]	.	?
CC(C)(CNS(=O)(=O)c1cccs1)N1CCOCC1
 : .	.	-2%	.	9%[46.1 µM]	7%	2%	-3%[46.1 µM]
CC(NC(=O)COC(=O)CCc1nc2ccccc2c(=O)[nH]1)c1ccccc1 (stereo not drawn)
 : .	.	-3%	.	16%	16%	6%	-9%
COc1ccc(CN(C)S(=O)(=O)c2nnc(NC(=O)c3cccc(C)c3)s2)cc1OC
 : -14%	.	0%	.	.	5%	-6%	.
NC(=O)CCC(NC(=O)c1ccc(Cl)cc1)C(=O)NCCc1ccc2c(c1)OCCO2 (stereo not drawn)
 : .	.	6%	.	?	-10%	-1%	2%[46.1 µM]
Cc1cc2oc3c(c(=O)c2cc1C)C(c1cccc(Br)c1)N(Cc1ccco1)C3=O (stereo not drawn)
 : -57%	?	-22%	-3.1%	?	4%	-1%	?
O=C(CSc1nnnn1Cc1ccccc1)NC1CCCCC1
 : -6%	.	-6%	.	7%[46.1 µM]	17%	0%	-5%[46.1 µM]
O=C(O)c1cnc(-c2ccccc2)nc1Sc1ccccc1Cl
 : 5%	11%	-17%	-8.1%	-4%	-1%	-3%	1%
CCc1ccc(C2NC(=S)NC3=C2C(=O)CCC3)cc1 (stereo not drawn)
 : 10%	-10%	0%	-8.1%	?	-7%	12%	3%
COc1ccc(C(C(=O)NC2CCCCC2)N(C(=O)c2ccco2)c2ccccc2C(C)=O)cc1OC (stereo not drawn)
 : -3%	.	-7%	.	-9%[46.1 µM]	-2%	2%	.
Cc1cccc(-n2c(CNC(=O)COc3ccccc3)nnc2SCC(=O)Nc2nccs2)c1
 : 5%	?	-4%	1.8%	?	-14%	0%	-4%
O=C1CC(=O)N(c2ccc(Cl)cc2)C(=O)N1
 : 27%	.	-6%	.	.	-2%	-6%	?
O=c1cc(-c2ccccc2)nc(SCc2ccc(F)cc2)[nH]1
 : 5%	-8%	-22%	-2.1%	?	14%	-12%	17%
Cc1ccc2nc(SCC(=O)N/N=C/c3ccc(C(=O)O)cc3)cc(C)c2c1
 : 7%	.	21%	.	.	-14%	8%	.
Cc1ccc(OCc2ccc(C(=O)N3CCCC3)o2)c([N+](=O)[O-])c1
 : -52%	.	23%	.	4%[46.1 µM]	16%	-7%	19%
CCn1c(SCC(=O)N/N=C/c2ccc(C)o2)nnc1-c1ccc(C(C)(C)C)cc1
 : 3%	5%	32µM*	-3.5%	-21%	11%	-18%	?

Some values from the results shown:
For NS1 function inh, O=c1cc(-c2ccccc2)nc(SCc2ccc(F)cc2)[nH]1 has 5%
For RE007 growth inh, CC(C)(CNS(=O)(=O)c1cccs1)N1CCOCC1 has 7%

Additional structures follow:
canonical_smiles | NS1 function inh | Cruzain noTriton | 2A StopGo | Cruzain inh Det | MARV entry inh | RE007 growth inh | SARS PLpro yeast | LASV entry inh
Cc1ccc(S(=O)(=O)N2CCN(C(=O)N3CCCC3)CC2)cc1 | -2% | . | 20% | . | 18%[46.1 µM] | 20% | -3% | ?
CCC1(C)CC(C(CC(=O)O)c2ccc(C)cc2)CCO1 (stereo not drawn) | 1% | 10% | -5% | 9.8% | -1% | 2% | 13% | -7%
CC[n+]1c(/C=C2\C=C(C)CC(C)(C)C2)sc2ccccc21 | -12% | 0% | ? | -2.4% | ? | -14% | 1% | 9.2µM*
Cc1ccc(CNC(=O)CCC(=O)N2CC(C)Oc3ccccc32)cc1 (stereo not drawn) | 11% | . | -13% | . | . | 12% | -3% | .
COc1ccccc1N1CCN(CC(O)c2c(C)[nH]c3ccccc23)CC1 (stereo not drawn) | 5% | . | -14% | . | . | -17% | 0% | .
C=CCn1c(COc2ccccc2C)nnc1SCC(=O)O | 4% | 19% | -9% | -2.4% | -11% | -3% | 10% | 6%
Cc1cc(N2CCCC2)n2nc(C)c(-c3ccccc3)c2n1 | -5% | 5% | . | 3.8% | -5% | . | 5% | .
Cc1cccc(Nc2nnc(SCC(O)=C(C#N)c3nc4ccccc4[nH]3)s2)c1 | . | . | 5% | . | 3%[46.1 µM] | -18% | . | ?
On1c(-c2ccc(Cl)cc2Cl)nc2ncccc21 | -1% | . | 13% | . | 13%[46.1 µM] | 6% | -4% | 29%[46.1 µM]

2 consecutive entries out of the list so far:
canonical_smiles | NS1 function inh | Cruzain noTriton | 2A StopGo | Cruzain inh Det | MARV entry inh | RE007 growth inh | SARS PLpro yeast | LASV entry inh
COc1ccccc1N1CCN(CC(O)c2c(C)[nH]c3ccccc23)CC1 (stereo not drawn) | 5% | . | -14% | . | . | -17% | 0% | .
C=CCn1c(COc2ccccc2C)nnc1SCC(=O)O | 4% | 19% | -9% | -2.4% | -11% | -3% | 10% | 6%
